Compound activity deposited in PubChem by several laboratories.
PABP polyA inh – PABP-poly(A) binding inhibition. P11940. PABP-poly(A) RNA binding, fluorescence polarization. inhibition, % at 35 µM. 1% of 290,000 active. AID 2014;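 active = 50% or more with normal probe brightness, or confirmed in later tests; about a fifth of its hits are not listed in these tables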;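 also: calls also rest on retests at 20 µM and on dose response follow-up; controls were probe without protein and protein plus probe with vehicle; some compounds called inactive have numbers as strong as hits; many hits fall short of the cut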
Target sequence (P11940 whole entry, looked up): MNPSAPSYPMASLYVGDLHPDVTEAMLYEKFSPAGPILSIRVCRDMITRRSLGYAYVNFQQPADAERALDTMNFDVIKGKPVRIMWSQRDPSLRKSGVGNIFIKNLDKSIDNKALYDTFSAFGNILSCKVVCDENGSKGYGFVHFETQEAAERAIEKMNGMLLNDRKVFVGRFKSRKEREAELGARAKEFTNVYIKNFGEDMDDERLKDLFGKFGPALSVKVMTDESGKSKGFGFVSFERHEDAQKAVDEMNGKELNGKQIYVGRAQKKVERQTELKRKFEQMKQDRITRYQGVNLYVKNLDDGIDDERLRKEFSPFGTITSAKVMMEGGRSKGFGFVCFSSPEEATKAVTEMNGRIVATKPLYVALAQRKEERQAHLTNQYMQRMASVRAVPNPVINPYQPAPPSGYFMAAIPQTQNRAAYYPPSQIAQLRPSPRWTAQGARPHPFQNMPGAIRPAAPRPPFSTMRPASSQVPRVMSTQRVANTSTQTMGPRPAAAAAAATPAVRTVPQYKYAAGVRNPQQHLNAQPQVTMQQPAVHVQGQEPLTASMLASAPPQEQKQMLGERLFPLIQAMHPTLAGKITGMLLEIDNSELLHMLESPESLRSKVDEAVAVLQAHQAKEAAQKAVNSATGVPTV
HIV Env fusion – blocks HIV Env-driven cell-cell fusion | AID 651610 | 1.1% of 360,000 active | inhibition, % at 12.3 µM | HeLa-JRFL Env/CEM21 cell fusion, luciferase;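 active = mean replicate inhibition score of at least 50 and every replicate individually at or above 50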;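 also: 0% = plate neutral controls and 100% = maraviroc near 300 nM; one replicate is shown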
Rce1 inhib – inhibitors of yeast Ras-converting enzyme; Q03530; yeast membranes, quenched prenylated peptide cleavage fluorescence; calls only; 0.27% of 290,000 active; AID 2563;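 active = fall in fluorescence gain of 50% or more versus controls, with final raw signal at or below 3038400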;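 also: plate controls were neutral control wells for no effect and wells lacking membranes for full effect; tested at 10 µM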
eIF4H FP inh – inhibitors of RNA binding by human eIF4H. Q15056. eIF4H fluorescence polarization binding assay. inhibition, % at 35 µM. 0.94% of 290,000 active;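 active = 50% or more with normal probe brightness, or confirmed in later tests; about a fifth of its hits are not listed in these tables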;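 also: calls also rest on retests at 20 µM and on dose response follow-up; 0% = protein and probe with vehicle and 100% = probe without protein; strong numbers were not always called active; many hits fall short of the cut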
UUG fidelity – alters start codon recognition fidelity in yeast; activity score, % at 18.7 µM; S. cerevisiae UUG-firefly luciferase reporter, luminescence/redox ratio; AID 602363; 0.13% of 350,000 active;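 active = replicate mean at a twofold rise or more, about +100% in these data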;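 also: firefly luciferase made from a UUG start codon reports start codon fidelity; reporter light over untreated wells divided by growth signal over untreated wells; some hits fall short of that in this replicate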
CSC inhib – cancer stem cell inhibition; cancer stem cell-like cells viability, luminescence; inhibition, % at 7.5 µM; 1.1% of 300,000 active; AID 2717;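 active = mean at 75% or more and at least half the replicates too; tested in HMLE shEcad cells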;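 also: 0% = median of negative and 100% = median of positive control wells; the first replicate is given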
MT1-MMP act inh – inhibitors of human MT1-MMP activation; AID 651647; GFP/RFP ratio change, % at 20 µM; HT1080 RFP-PRO-GFP cells, GFP/RFP ratio fluorescence, overnight; percent of plate control window, DMSO zero; 0.061% of 360,000 active;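 active = GFP/RFP ratio change of at least 30% with cell ATP level not reduced by more than half and red fluorescence within 50% of control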; also: strong numbers were not always called active
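Assay system – RFP-PRO-GFP reporter HT1080 cells · Compound dosing – single dose of 20 µM compound, 1% DMSO final · Incubation – overnight compound exposure at 37 °C · Measure – GFP/RFP fluorescence ratio · Benchmarks – DMSO wells and RFP-L50D-GFP cells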
eIF4H FP inh retest – second read-out of eIF4H FP inh, no call of its own (marks repeat the call); inhibition, %; compound at 20 µM; confirmation average;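 mean of two retest wells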
PABP polyA inh retest – second read-out of PABP polyA inh, no call of its own (marks repeat the call); inhibition, %; compound at 20 µM; confirmation repeats;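 mean of two retest wells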
MT1-MMP act inh RFP – also measured in MT1-MMP act inh; calls as there; RFP signal change, %; measured here: RFP expression control read;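 0 = vehicle wells; hits needed this value within 50% of zero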
An asterisk follows results filed as active; i = inactive; / = not tested or not shown; & = joins results of further samples. This is a subset; rates above refer to the full screens.

SMILES	PABP polyA inh	HIV Env fusion	Rce1 inhib	eIF4H FP inh	UUG fidelity	CSC inhib	MT1-MMP act inh	MT1-MMP act inh RFP	others
NC(=O)c1ccc(NC(=O)CCCN2C(=O)c3ccccc3C2=O)cc1	1	-11	i	-10	-6	-17	19	6
O=C1NCC(=O)N(Cc2ccccc2)/C1=C/c1ccccc1	9	-5	i	-1	-9	-5	-1	2
NNc1nc2ccccc2nc1C(F)(F)F	-11	8	i	11	/	-24	3	5
O=C(CSc1nc2ccccc2o1)N1c2ccccc2Sc2ccc(C(F)(F)F)cc21	14	/	i	-3	/	21	-3	-10
COc1ccc(C(=O)Nc2ccc(NC(=O)c3cccc(F)c3)cn2)cc1	10	-2	i	0	-7	0	0	-3
Cc1ccc(OC(C)C(=O)N(Cc2cccs2)C2CCS(=O)(=O)C2)cc1C (stereo not drawn)	-6	23	i	4	-1	-12	0	-3
COc1ccc(C(=O)[C@H]2[C@H]3C(=O)N(c4ccc(C)cc4)C(=O)[C@H]3C3C=CC=NN32)cc1 (stereo partly drawn)	9	-3	i	-4	-17	-5	2	3
CSc1ccc(S(=O)(=O)NCc2ccc(Cl)cc2)cc1	2	-55	i	7	-12	6	7	8
CN(c1ccccc1)c1ccc(/C=C(\CCC(=O)O)c2nc3ccccc3s2)cc1[N+](=O)[O-]	-6	-14	i	100	/	39	7	2	eIF4H FP inh retest=-7;PABP polyA inh retest=-1
CC(=O)c1ccc2c(c1)OCCOCCOc1ccc(C(C)=O)cc1OCCOCCO2	1	13	i	-5	9	-7	2	3
CCOCCCNC(=O)C1CCCN1S(=O)(=O)c1ccc(Cl)cc1 (stereo not drawn)	8	12	i	-5	-19	-1	1	3
Cc1occc1C(=O)N1CCC2(CCCN(Cc3ccc(F)c(F)c3)C2)C1 (stereo not drawn)	-6	7	i	-7	-23	6	-4	0
O=C(NNC(=O)c1cnccc1C(F)(F)F)c1cccc(Cl)c1	0	-14	i	-12	-9	0	3	1
CC(=O)O[C@H]1C[C@@]2(O)[C@@H](OC(=O)c3ccccc3)C3[C@@](C)([C@@H](O)C[C@H]4OC[C@@]34OC(C)=O)[C@@H](O)[C@H](OC(C)=O)C(=C1C)C2(C)C (stereo partly drawn)	-4	/	i	-9	-4	-5	3	5
Cc1nc(Cl)sc1C(=O)Nc1cccc(Cl)c1C	-9	-13	i	-8	-18	-7	2	1
C=CCOC(=O)C1=C[C@H](c2coc3ccccc3c2=O)C[C@H](OCc2ccc(CO)cc2)O1	8	-12	i	7	-4	11	-4	-6
CCC(CO)Oc1cc(NC(=O)c2ccc(F)cc2)c2ncn(C(C)C)c2c1 (stereo not drawn)	/	-19	/	/	-9&-13	-8	0	3
COC(=O)CCSCC(=O)Nc1nnc(C)s1	-4	17	i	-3	-14	-10	2	4
O=c1ccc2ccccc2n1Cc1cccc(F)c1	-3	-4	i	1	/	-6	0	4
O=C(Nc1ccc(N2CCN(C(=O)c3ccc(Cl)cc3)CC2)cc1)c1cccnc1	-9	/	i	-2	/	0	1	-7
COc1ccc(OC)c(S(=O)(=O)N(C)CC(=O)N2CCN(c3cccc(Cl)c3)CC2)c1	-3	/	i	-9	17	7	-3	-3
CC(CCc1ccccc1)NC(=O)C(=O)NCc1ccccc1 (stereo not drawn)	-3	-5	i	9	-7	/	-1	2
CC1CCCCN1S(=O)(=O)c1ccc(C(=O)Nc2nnc(-c3ccco3)o2)cc1 (stereo not drawn)	-2	22	i	16	-26	20	-4	-5
O=C1CS/C(=N/N=C/c2cccs2)N1Cc1ccc(F)cc1	2	15	i	-8	4	-6	0	-13
Cc1cc(C)nc(NS(=O)(=O)c2ccc(N/C=C\C(=O)c3cccs3)cc2)n1	15	14	i	-4	/	2	-6	-2
CCCn1c(SCC(=O)NC2CCCCC2)nnc1-c1ccccn1	-5	-23	i	3	2	-11	8	2
COc1cc(OC)cc(-c2c(C#Cc3ccsc3)c3cc(-c4ccc5cc[nH]c5c4)ccc3n2C)c1	/	-8	/	/	-11	9	2	0
Cc1cccc(C)c1OCC(O)CN(Cc1ccccc1O)C1CCCCC1 (stereo not drawn)	-6	31	i	6	0	25	-20	-7
C=CCOC(=O)C1=C[C@@H](c2csc3ccccc23)C[C@@H](OCc2ccc(CO)cc2)O1	1	13	i	-9	-10	31	-4	-10
CC(=O)Nc1ccc(S[C@@H](CCN2CC[C@H](O)CCC2=O)c2ccccc2)cc1	/	-8	/	/	6	-10	-1	4
O=C(NC1(C(F)(F)F)N=C2SCCN2C1=O)c1ccccc1 (stereo not drawn)	8	1	i	-7	2	6	-1	3
COc1ccc(/C=N/NC(=O)Cc2csc(Nc3cccc(C(F)(F)F)c3)n2)cc1C	-12	/	i	5	-16	34	1	-4
CN1CCCN(S(=O)(=O)c2ccc3c(c2)OCCO3)CC1	-12	-20	i	3	-4	-1	-3	-2
COc1ccccc1Oc1coc2cc(OC(=O)N3CCOCC3)ccc2c1=O	-4	-8	i	-16	-16	5	4	9
CCOc1cccc(C2C(C(=O)c3ccc(C)o3)=C(O)C(=O)N2Cc2ccncc2)c1 (stereo not drawn)	2	/	i	12	-26	-2	-2	1
CCc1ccc(NC(=O)CSc2nc(=O)n(CCCN(C)C)c3c2CCC3)cc1	/	6	i	/	-6	-11	-3	-2
COCC(C)NC(=O)C(C)N1c2cccc3cccc(c23)S1(=O)=O (stereo not drawn)	-4	6	i	2	-1	-1	-2	-1
CCc1ccc(CNC(=O)C2CCC(=O)N2C2CCCCC2)cc1 (stereo not drawn)	9	-32	i	-6	5	8	2	1
Cc1ccc(CN2CC(C(=O)Nc3nc(C)cs3)CC2=O)cc1 (stereo not drawn)	/	-9	/	/	-10	/	4	-3
COc1cc(C(=O)Nc2cccc(S(=O)(=O)N3CCCC3)c2)cc(OC)c1C	-15	13	i	2	5	-3	1	-9
CCCCCC1C(=O)C[C@@H]2CCN3C(=O)CCC[C@H]1[C@H]23 (stereo partly drawn)	/	-2	/	/	4	/	6	6
CCOC(=O)c1cc2occc2n1CC(=O)N1CCOCC1	8	/	i	-5	-19	-11	-1	4
COc1ccc(S(=O)(=O)N2CCCOC2CNC(=O)C(=O)NCc2cccnc2)cc1 (stereo not drawn)	-4	-3	i	2	-8	-11	0	0
CCN(CC)C(=O)COc1ccc(CC(=O)O)cc1OC	7	-84	i	7	-18	-15	6	6
Cc1ccc(/C(N)=N/OC(=O)CSc2ccccc2)cc1	15	-20	i	1	/	0	-2	3
CC1(C)CC(=O)C2=C(C1)N=C1c3ccccc3C(=O)C1C2c1ccc(Cl)cc1 (stereo not drawn)	1	/	i	-1	-4	27	-37	-47
Cc1cc(C)cc(OCc2nc3ncc(Br)cc3[nH]2)c1	/	-17	i	/	-11	39	-1	-8
NC(=O)COC(=O)C1c2ccccc2Oc2ccccc21	-6	12	i	-15	-17	-5	-5	-2
CCN(CC)C(=O)Oc1cc(=O)n2c3c(cccc13)CCC2	7	2	i	2	11	-3	0	-4
O=C(Nc1cccc(S(=O)(=O)N2CCCCC2)c1)c1ccccn1	-3	11	i	-1	1	-8	1	3

Of the compounds above, 2 have an NH in an aromatic ring.
SMILES	PABP polyA inh	HIV Env fusion	Rce1 inhib	eIF4H FP inh	UUG fidelity	CSC inhib	MT1-MMP act inh	MT1-MMP act inh RFP	others
COc1cc(OC)cc(-c2c(C#Cc3ccsc3)c3cc(-c4ccc5cc[nH]c5c4)ccc3n2C)c1	/	-8	/	/	-11	9	2	0
Cc1cc(C)cc(OCc2nc3ncc(Br)cc3[nH]2)c1	/	-17	i	/	-11	39	-1	-8

Grouped by structure, those above with a COOH group (2)
SMILES	PABP polyA inh	HIV Env fusion	Rce1 inhib	eIF4H FP inh	UUG fidelity	CSC inhib	MT1-MMP act inh	MT1-MMP act inh RFP	others
CN(c1ccccc1)c1ccc(/C=C(\CCC(=O)O)c2nc3ccccc3s2)cc1[N+](=O)[O-]	-6	-14	i	100	/	39	7	2	eIF4H FP inh retest=-7;PABP polyA inh retest=-1
CCN(CC)C(=O)COc1ccc(CC(=O)O)cc1OC	7	-84	i	7	-18	-15	6	6

Carrying on.
SMILES	PABP polyA inh	HIV Env fusion	Rce1 inhib	eIF4H FP inh	UUG fidelity	CSC inhib	MT1-MMP act inh	MT1-MMP act inh RFP	others
COCCN(CC(=O)NC1CCCCC1)C(=O)/C=C/C(=O)c1ccc(OC)cc1O	0	-184	i	-3	/	/	0	-1
CC(=O)N1C(=O)N(C(C)=O)C2C1N(C)C(=O)N2C(C)=O (stereo not drawn)	3	20	i	-2	/	-8	8	4
CN=C1S/C(=C\c2ccc(O)c(OC)c2)C(=O)N1C	/	-17	i	/	-4	10	-5	2
CCc1nn(CC(=O)N2CCN(c3cc(C)ccc3C)CC2)c(=O)c2cc3occc3n12	10	-2	i	-4	-11	8	3	1
CCOc1ccc2[nH]c3c(NCCc4ccc(OC)c(OC)c4)ncnc3c2c1	5	19	i	-8	/	6	13	-8
Cc1ccc(Cl)cc1N(CC(=O)NCc1ccc2c(c1)OCO2)S(C)(=O)=O	-13	-5	i	-1	/	9	-7	-1
COc1cccc(Oc2cnc(N)nc2-c2ccc(OC)cc2O)c1	-11	20	i	-2	-14	/	-8	-14
O=C(/C=C/c1ccc(F)cc1)NCC1(c2ccccc2)CCOCC1	6	-6	/	-1	-4	-4	1	-2
COc1cccc(NC(=O)N2CCCC2C(=O)NC2CCCC2)c1 (stereo not drawn)	1	-14	i	-4	-7	-5	-2	4
COc1ccc(C=NCC2OCCc3ccccc32)cc1OC (stereo not drawn)	9	-4	/	4	/	8	-1	4
CC1(NC(=S)N(CCO)CCO)CCS(=O)(=O)C1 (stereo not drawn)	3	4	i	-3	/	-8	1	4
O=C(CCN1CCN(c2ccccc2)CC1)NNC(=S)Nc1ccccc1Cl	12	-13	i	5	/	-16	4	-1
COc1ccc(Cc2nnc(NC(=O)Nc3ccccc3F)s2)cc1	4	-20	i	10	-2	-7	4	1
COc1ccc(NC(=O)CNC(=O)N2CC(=O)Nc3ccccc32)cc1OC	-9	-1	i	-16	-27	-12	1	5
CC(C)C(CCNC(=O)CC(Cc1ccccc1)c1ccco1)c1ccco1 (stereo not drawn)	0	-9	i	5	-13	2	-15	-6
CCOCCc1c(O)nc(SCC)[nH]c1=O	-5	4	i	-2	-13	-8	2	3
CC(C)CCOc1ccc(C(CC(N)=O)C(=O)O)cc1 (stereo not drawn)	-11	/	i	-8	6	-3	1	7
C/C(=N/NC(=O)CNC(=O)C1COc2ccccc2O1)c1ccc([N+](=O)[O-])cc1 (stereo not drawn)	12	-11	i	-13	-4	/	0	-1
CCOc1ccc(CNC(=O)C2CCN(c3nn4c(=O)cc(C)nc4s3)CC2)cc1	-7	1	i	2	9	7	2	-2
CCc1cccc2c(C(=O)COC(=O)[C@@H]3CC(O)CN3S(=O)(=O)c3ccccc3[N+](=O)[O-])c[nH]c12 (stereo partly drawn)	/	9	/	/	13	13	2	3
COCCNc1nnc(Cc2ccccc2)c(=O)[nH]1	7	-5	i	8	-16	-4	6	6
Cc1noc(C)c1S(=O)(=O)N(Cc1ccccc1)C(C)C	12	11	i	2	-8	5	4	0
Cn1ccc(C(=O)Nc2cccnc2Cl)n1	5	-58	i	-1	-5	/	-2	0
Cc1cc2ccccn2c1C(=O)c1ccc(NN)c([N+](=O)[O-])c1	1	-10	/	-5	10	-8	-11	-20
CCc1nc(SCC(=O)c2cccs2)c2oc3ccccc3c2n1	2	-23	i	2	/	45	-5	-5
